GIV-Gai inh = blocks GIV peptide binding to rat Galpha-i3 | P08753 | Galpha-i3/FITC-GIV peptide fluorescence polarization, 90 min; stronger effect = lower value; scaled: aluminum fluoride 0%, vehicle 100% | percent of control (FP), % (concentration not given with the values) | actives 0.42% (n = 210,000) | AID 1224905;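 active means replicate mean at 85% of control or lower, very high polarization wells dropped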;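 further: wells of about 15 µL received 100 nL stock; the first replicate is given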
Target sequence (P08753 whole entry, looked up): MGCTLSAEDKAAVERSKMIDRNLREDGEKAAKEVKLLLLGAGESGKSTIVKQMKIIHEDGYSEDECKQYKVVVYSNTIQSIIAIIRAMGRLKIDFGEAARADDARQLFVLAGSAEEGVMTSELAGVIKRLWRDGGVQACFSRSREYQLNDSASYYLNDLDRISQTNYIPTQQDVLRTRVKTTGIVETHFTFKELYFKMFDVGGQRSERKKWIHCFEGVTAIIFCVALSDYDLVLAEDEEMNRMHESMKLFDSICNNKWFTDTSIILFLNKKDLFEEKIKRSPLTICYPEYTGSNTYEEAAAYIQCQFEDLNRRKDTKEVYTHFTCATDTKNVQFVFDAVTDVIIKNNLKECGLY
Sa growth 42C = S. aureus growth inhibition. S. aureus RN4220 growth, OD600, 20 h, 42 °C; stronger effect = lower value. actives 0.53% (n = 170,000). relative growth, % (test concentration not listed);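 active means growth at 42 °C up to 50% and 20 or more points under that at 30 °C, or under 10% at both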;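 further: 300 nL library stock went into each well; scaled to the means of positive and negative controls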
HCMV UL50-53 inh = inhibitors of HCMV UL50-UL53 nuclear egress complex interaction. HTRF UL50-UL53 interaction, normalized percent inhibition. inhibition, % (no concentration beside the values). actives 0.15% (n = 190,000);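 active means both replicates at 50% or more, plus weaker picks with an unusually low signal ratio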;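 further: stock transfer was 100 nL into about 20 µL; 0% = negative control wells and 100% = wells with untagged competitor protein; inactives centre near -12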
Sa growth 42C second temp = recorded beside Sa growth 42C, whose call it bears; relative growth, %; measured here: growth at 30 °C;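 optical density after 20 h as mean of two plates; 100% = untreated growth and lower means inhibition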
The depositor's hits bear a star; . = not tested or not shown; & = joins results of further samples.

Labels used below: A = GIV-Gai inh; B = Sa growth 42C; C = Sa growth 42C second temp; D = HCMV UL50-53 inh
Cc1nc(Nc2ccccc2F)c2c(C)noc2n1
  A: 108; B: .; C: .; D: -2

COc1ccc(C(=O)C2=NN(C(C)=O)CC2c2ccco2)cc1 (configuration not stated)
  A: 102; B: 88; C: 89; D: -37

O=C(Nc1ccccc1)c1cc(=O)[nH]c2ccccc12
  A: .; B: 79; C: 89; D: -5

Cc1ccsc1-c1nc(-c2ccc3c(c2)nc(C)c(=O)n3C2CCCC2)no1
  A: 117; B: .; C: .; D: -24

O=C(CO)Nc1ccc2c(c1)OCCO2
  A: .; B: 109; C: 91; D: 0

CCc1nn2c(=O)c(S(=O)(=O)Nc3cccc(F)c3)c(C)nc2s1
  A: 109; B: 115; C: 92; D: 2

COC(=O)c1ccc(Oc2nc(OC)nc(N(C)C)n2)cc1
  A: 100; B: 79; C: 85; D: .

CN(Cc1ccc(C(C)(C)C)cc1)Cc1cccc2ccccc12
  A: 105; B: 93; C: 98; D: -10&-8

O=C(NCC1CCCO1)c1ccc2c(=O)n(Cc3ccccc3)c(SCC(=O)c3c[nH]c4ccccc34)nc2c1 (configuration not stated)
  A: 122; B: .; C: .; D: 50

CC(C)OCCCNC(=O)Cn1c(-c2cccs2)cc2cc(F)ccc21
  A: 106; B: 110; C: 81; D: -38

Cc1cc(C(=O)Nc2ccc3c(c2)-c2ccccc2C3)no1
  A: .; B: 95; C: 99; D: -14

COc1ccc(C)cc1NC(=O)Cn1c(C)cc(C)c(S(=O)(=O)c2ccc(C)cc2)c1=O
  A: 102; B: .; C: .; D: 4

OC(Cc1ccccc1)(c1ccccc1)c1ccccc1N=Cc1ccc2c(c1)OCO2 (configuration not stated)
  A: 102; B: 73; C: 80; D: -22

Cc1cc2nc(S(=O)(=O)Cc3cccc(C(F)(F)F)c3)[nH]c2cc1C
  A: .; B: 83; C: 74; D: -10

Cc1cc2nc3s/c(=C\c4ccc(OC(=O)N5CCOCC5)cc4)c(=O)n3c2cc1C
  A: 99; B: .; C: .; D: -8

CCOc1ccccc1NC(=O)Cn1c(=O)n(-c2cccc(C)c2)c(=O)c2c1c1cc(OC)ccc1n2C
  A: 106; B: 92; C: 90; D: -23

O=C(NCC1CCCCC1)c1ccc(F)c(S(=O)(=O)N2CCOCC2)c1
  A: .; B: 95; C: 98; D: -6

O=c1[nH]cc(S(=O)(=O)Nc2ccccc2)c(=O)[nH]1
  A: 106; B: 85; C: 95; D: 0

COc1ccc(CN(C(=O)c2ccc(OCC(C)C)cc2)C2CCS(=O)(=O)C2)cc1 (configuration not stated)
  A: 99; B: 90; C: 98; D: 10

N#CCC1CCCO1 (configuration not stated)
  A: .; B: 77; C: 90; D: -14

CCc1ccc(C(=O)N2CCCC2)s1
  A: 109; B: 105; C: 104; D: 11

CC(C)CNCC(=O)N(C1CCCCC1)C1CCCCC1
  A: 98; B: 96; C: 114; D: 13

Cc1ccc(C)c(NC(=O)C23CC4CC(CC(O)(C4)C2)C3)c1
  A: .; B: 72; C: 96; D: -25

COc1ccc2c(c1)NC1(CCN(C(=O)COc3ccc(Cl)cc3)CC1)c1cccn1-2
  A: 106; B: .; C: .; D: -22

C=CCn1c(C)nnc1SCC(=O)NCC12CC3CC(CC(C3)C1)C2
  A: .; B: 116; C: 102; D: 5

C=CCn1c(=N)c(C(=O)NCC2CCCO2)cc2c(=O)n3cccc(C)c3nc21 (configuration not stated)
  A: 112; B: 91; C: 86; D: -65

O=C(CSc1ncn[nH]1)N1CCOCC1
  A: 101; B: 117; C: 93; D: -27

CC1CCN(C(=O)COC(=O)Cc2ccc(Cl)cc2)CC1
  A: .; B: 88; C: 99; D: -7

CCC(CC)C(=O)OCc1cc(=O)n2nc(C3CCCCC3)sc2n1
  A: 102; B: 79; C: 92; D: .

O=C(NC1CCCC1)c1cccc2c1C(=O)N(C1CCCCC1)C2
  A: 100; B: 91; C: 81; D: -10

CC(C)Oc1ccc(CNC(=O)C2CCN(C(=O)N3CC(C)Oc4ccccc43)CC2)cc1 (configuration not stated)
  A: 101; B: 100; C: 81; D: -11

O=C(O)C1C2C=CC(C2)C1C(=O)Nc1cccc(Br)c1 (configuration not stated)
  A: 98; B: 117; C: 48; D: -49

CCSc1nnc(CCNC(=O)Nc2ccc(Cl)cc2C(F)(F)F)n1C
  A: 102; B: 97; C: 84; D: 3

COc1ccc(C=Nc2ccc3[nH]c(=O)[nH]c3c2)cc1OC
  A: .; B: 101; C: 90; D: -7

NC(=O)COc1ccc(S(=O)(=O)N2CCCCC2)cc1
  A: 104; B: 102; C: 103; D: 1

COc1ccc(NC(=O)c2cnc(N(C)C)nc2C)c(OC)c1
  A: 100; B: .; C: .; D: -29

CC(C)=CCCC1=CCC(/C=N/NC(N)=O)C(C)C1 (configuration not stated)
  A: 103; B: 84; C: 83; D: -14

CCCn1nc(C(=O)NCCN2CCOCC2)c2ccccc2c1=O
  A: .; B: 92; C: 95; D: -20

COc1ccc2nc3oc(C(=O)N4CCN(c5ccccn5)CC4)cc3cc2c1
  A: 102; B: .; C: .; D: -39

CS(=O)(=O)Nc1ccc2[nH]c(=O)c(=O)[nH]c2c1
  A: 98; B: 96; C: 88; D: -28

CCCC1C2CN(C(C)C)CC=C2C(C#N)=C(N)C1(C#N)C#N (configuration not stated)
  A: 79*; B: 95; C: 76; D: -62

Cc1ccc(S(=O)(=O)NC2=NCN(CCN3CCOCC3)CN2)cc1
  A: 103; B: 118; C: 88; D: .

Nc1nc(COC(=O)C2CCN(S(=O)(=O)c3c(Cl)cccc3Cl)CC2)nc(Nc2ccccc2)n1
  A: .; B: 118; C: 93; D: 4

O=S(=O)(NC1=NCCCCC1)c1ccc2ccccc2c1
  A: .; B: 116; C: 87; D: -40

N/C(=N\O)c1cn(Cc2ccccc2Cl)c2ccccc12
  A: 103; B: 100; C: 70; D: -9

Whole records, looked up by structure. Order of screens: GIV-Gai inh	Sa growth 42C	Sa growth 42C second temp	HCMV UL50-53 inh
COc1ccc(C=Nc2ccc3[nH]c(=O)[nH]c3c2)cc1OC across the screens: .	101	90	-7
CCSc1nnc(CCNC(=O)Nc2ccc(Cl)cc2C(F)(F)F)n1C across the screens: 102	97	84	3
CC(C)=CCCC1=CCC(/C=N/NC(N)=O)C(C)C1 (configuration not stated) across the screens: 103	84	83	-14
COc1ccc(NC(=O)c2cnc(N(C)C)nc2C)c(OC)c1 across the screens: 100	.	.	-29
O=S(=O)(NC1=NCCCCC1)c1ccc2ccccc2c1 across the screens: .	116	87	-40

(next part)
Labels used below: A = GIV-Gai inh; B = Sa growth 42C; C = Sa growth 42C second temp; D = HCMV UL50-53 inh
CCN1CCN(c2cc(C)nc3c(-c4ccc(F)cc4)cnn23)CC1
  A: 100; B: .; C: .; D: 2

Cc1ccc(N(Cc2nc3nc(C)cc(=O)n3[nH]2)C(=O)C(C)(C)C)cc1
  A: 99; B: .; C: .; D: -36

COc1ccc(C(=O)Oc2c(Sc3ccc(C)cc3)c(C)nn2C(C)(C)C)cc1OC
  A: 107; B: 99; C: 107; D: 9

O=C(O)C1CCCCC1C(=O)Nc1cccc(F)c1 (configuration not stated)
  A: .; B: 132; C: 87; D: -9

COc1cccc(N2C(=O)/C(=C/c3ccc(OC)c4ccccc34)C(=O)NC2=S)c1
  A: 102; B: .; C: .; D: -25

O=C(CNC(=O)C1CCCCC1)Nc1ccc(S(=O)(=O)NCc2ccco2)cc1
  A: .; B: 92; C: 91; D: -10

NC(=O)C1CCN(C(=O)c2ccc3c(c2)S(=O)(=O)c2ccccc2C3=O)CC1
  A: .; B: 101; C: 88; D: -170

CC1(C)C(=O)NC(=O)N1CN1C(=O)NC(=O)C1(C)C
  A: 102; B: 107; C: 69; D: 4

Cc1ccccc1NS(=O)(=O)c1ccc2c(c1)CCN2C(=O)C1CCC1
  A: 98; B: 102; C: 76; D: .

COc1ccc(C(=O)[C@@H]2[C@@H](c3cccs3)C(C#N)(C#N)[C@H]3C=Cc4ccccc4N23)cc1
  A: 186; B: 78; C: 66; D: -58

CC1CC(C(O)c2ccccn2)C(=O)C(C(O)c2ccccn2)C1 (configuration not stated)
  A: 99; B: 90; C: 85; D: -10

COCc1cc(C)c2c(N)c(C#N)sc2n1
  A: 109; B: 121; C: 86; D: -12

O=C1NC(=S)NC(=O)C1=Cc1ccc(OCc2ccccc2)c(Br)c1
  A: 99; B: .; C: .; D: 66*

O=C(c1ccc2c(c1)sc1nc(-c3ccccc3)cn12)N1CCN(C(=O)c2ccco2)CC1
  A: 105; B: 85; C: 40; D: -19

CCC(Oc1ccccc1C)C(=O)O (configuration not stated)
  A: 103; B: 119; C: 106; D: -2

O=C1N/C(=N\Nc2ccccc2)S/C1=C\c1ccccc1
  A: 210; B: 95; C: 80; D: -28

OCC(O)/C=N/Nc1nc2ccccc2s1 (configuration not stated)
  A: 104; B: 83; C: 72; D: -18

Cc1ccc(Cl)cc1NC(=S)N(N)CCO
  A: 97; B: 98; C: 95; D: -18

O=C(c1ccc(Cl)cc1)N1CCSC1=S
  A: 102; B: 103; C: 88; D: -1

CN1CCC(n2nccc2NC(=O)c2cccnc2Sc2ccccc2)CC1
  A: .; B: 73; C: 84; D: -6

COCC(C)NC(=O)c1c(-c2ccccc2)noc1C (configuration not stated)
  A: .; B: 102; C: 84; D: -10

Cn1c(=O)n(C)c2cc(N3CCOCC3)c(NC(=O)c3ccc(Cl)cc3)cc21
  A: 102; B: 104; C: 94; D: 0

CC(C)c1cc(=O)n2c(nc3ccccc32)[nH]1
  A: 97; B: .; C: .; D: -23

COc1cc(C(=O)N2C3=C(CCCC3)C(=O)NC23CCCCC3)cc(OC)c1OC
  A: 101; B: 95; C: 90; D: -6

O=C(CN1C(=O)C2(SCC(=O)N2c2ccc(F)c(F)c2)c2ccccc21)NCCc1ccccc1 (configuration not stated)
  A: 108; B: 135; C: 88; D: .

COc1ccc(C(=O)NCCn2cc(SCC(=O)Nc3ccc(C)cc3)c3ccccc32)cc1
  A: 102; B: 128; C: 108; D: .

CC1(C)Cc2c(sc3ncn4nc(Cc5ccccc5)nc4c23)C(C)(C)N1
  A: 97&95; B: .; C: .; D: -11&-9

CCOC(=O)/C(C#N)=C\c1ccccc1N1CCN(C)CC1
  A: 113; B: 109; C: 104; D: -39

Cc1cc2nc(NCCCN3CCCC3=O)c3ccccc3n2n1
  A: .; B: 101; C: 95; D: -5

CCOc1ccc(NC(=O)CN2C(=O)CS/C2=C\C#N)cc1
  A: .; B: 89; C: 87; D: -11

CCC(C)c1ccc(NC(=O)C2CC(=O)N(c3ccc(C)cc3)C2)cc1 (configuration not stated)
  A: 98; B: 105; C: 94; D: .

COc1ccccc1-n1c(SCC(N)=O)nc2c(c1=O)C1(CCCCC1)Cc1ccccc1-2
  A: 110; B: .; C: .; D: 8

Cc1nc(N2CCOCC2)cc(N2CCN(C(=O)Nc3ccc4c(c3)OCCO4)CC2)n1
  A: 98; B: .; C: .; D: -20

Cc1cccc2c1OC(=O)CC2c1ccccc1 (configuration not stated)
  A: 104; B: 139; C: 88; D: 5

CC(C)NS(=O)(=O)c1ccc(OCC(=O)N2CCCCC2)cc1
  A: 98; B: 91; C: 74; D: -10

CSc1nc(C)cc(Oc2ccc(=O)n(C)n2)n1
  A: 99; B: 96; C: 82; D: -14

N#Cc1nc(-c2ccccc2)oc1N1CCN(C(c2ccccc2)c2ccccc2)CC1
  A: .; B: 112; C: 91; D: -28

COc1cc2c(cc1OC)C(c1cc3cc4c(cc3[nH]c1=O)OCO4)N(C(=O)C1CCC1)CC2 (configuration not stated)
  A: 105; B: 103; C: 84; D: -7

N#C/C(=C1\CCCN1)c1nc2ccccc2s1
  A: .; B: 116; C: 93; D: 1

COc1ccc(-c2csc(C(C#N)=C3CCCC3)n2)cc1
  A: 104; B: 100; C: 79; D: -15

O=C1CSc2ccc(S(=O)(=O)NCCC3=CCCCC3)cc2N1
  A: 107; B: .; C: .; D: -9

Cc1ccc(-n2c(N)c(C(=O)NCC(C)C)c3nc4ccccc4nc32)cc1
  A: .; B: 100; C: 94; D: -5

O=C(CSc1nc2c([nH]c3ccccc32)c(=O)n1-c1ccccc1F)Nc1ccccc1C(F)(F)F
  A: 99; B: 94; C: 83; D: .

CCOc1ccc(C(=S)N2CCN(C)CC2)cc1
  A: 104; B: 106; C: 95; D: -8

Fc1ccc(C2Nc3ccc4ccccc4c3C3C=CCC32)cc1 (configuration not stated)
  A: 105; B: .; C: .; D: 8

CCCn1c(C)cc(C(=O)CSc2ncn[nH]2)c1C
  A: .; B: 86; C: 77; D: -42

Cc1cccc(OCCOC(=O)c2ccccc2O)c1
  A: .; B: 104; C: 90; D: -23

CCCCOc1ccccc1C(=O)Nc1nonc1-c1ccccc1
  A: 102; B: 81; C: 75; D: 20

CNC(=O)Cc1ccc(-n2c(=O)c3ccccc3n(CC(=O)Nc3cccc(F)c3)c2=O)cc1
  A: 105; B: .; C: .; D: 1

O=C(CN1C(=O)COc2ccc(S(=O)(=O)N3CCCC3)cc21)N1CCN(c2ccccc2)CC1
  A: 106; B: 91; C: 81; D: .

COc1ccc(CCNC(=O)CCn2c(=O)c3ccccc3n(CC(=O)Nc3ccccc3F)c2=O)cc1OC
  A: 103; B: 90; C: 90; D: 4

CS(=O)(=NS(=O)(=O)c1cccs1)c1ccc(OC(=O)c2ccc(Cl)cc2)cc1 (configuration not stated)
  A: 99; B: 104; C: 88; D: -3

Bioassay records deposited in PubChem by ICCB-Longwood Screening Facility, Harvard Medical School.
